# CSC inhib: blocks cancer stem cells; cancer stem cell-like cells viability, luminescence; inhibition, % at 7.5 µM; 1.1% of 300,000 active;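 active = mean at 75% or more and at least half the replicates too; inconclusive = mean and replicates disagree; tested in HMLE shEcad cells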;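 note: 0% = median of negative and 100% = median of positive control wells; the first replicate is given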
# HIV Env fusion: inhibitors of HIV Env-mediated cell fusion; inhibition, % at 12.3 µM; 1.1% of 360,000 active; HeLa-JRFL Env/CEM21 cell fusion, luciferase;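 active = mean replicate inhibition score of at least 50 and every replicate individually at or above 50; inconclusive = only one of the two criteria met; inactive = mean below 50 and not all replicates reaching 50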;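 note: 0% = plate neutral controls and 100% = maraviroc near 300 nM; one replicate is shown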
# MT1-MMP act inh: blocks activation of human MT1-MMP | HT1080 RFP-PRO-GFP cells, GFP/RFP ratio fluorescence, overnight; percent of plate control window, DMSO zero | P50281 | 0.061% of 360,000 active | GFP/RFP ratio change, % at 20 µM | AID 651647;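 active = GFP/RFP ratio change of at least 30% with cell ATP level not reduced by more than half and red fluorescence within 50% of control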; note: strong numbers were not always called active
#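 Material: RFP-PRO-GFP reporter HT1080 cells. Dosing: single-point 20 µM compound, 1% DMSO. Controls: DMSO and RFP-L50D-GFP cell wells. Timing: cells overnight before dosing, compound overnight, 37 °C, 5% CO2. Measure: GFP/RFP fluorescence ratio.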
# PABP FP inh: PABP-poly(A) binding inhibition | P11940 | PABP-poly(A) RNA binding, fluorescence polarization | inhibition, % at 35 µM | 1% of 290,000 active;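 active = 50% or more with normal probe brightness, or confirmed in later tests; inconclusive = above 50% with abnormal brightness, or retests that disagree; inactive = below 50% or failed in later tests; about a fifth of its hits are not listed in these tables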;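 note: calls also rest on retests at 20 µM and on dose response follow-up; controls were probe without protein and protein plus probe with vehicle; some compounds called inactive have numbers as strong as hits; many hits fall short of the cut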
# Target sequence (P11940 whole entry, looked up): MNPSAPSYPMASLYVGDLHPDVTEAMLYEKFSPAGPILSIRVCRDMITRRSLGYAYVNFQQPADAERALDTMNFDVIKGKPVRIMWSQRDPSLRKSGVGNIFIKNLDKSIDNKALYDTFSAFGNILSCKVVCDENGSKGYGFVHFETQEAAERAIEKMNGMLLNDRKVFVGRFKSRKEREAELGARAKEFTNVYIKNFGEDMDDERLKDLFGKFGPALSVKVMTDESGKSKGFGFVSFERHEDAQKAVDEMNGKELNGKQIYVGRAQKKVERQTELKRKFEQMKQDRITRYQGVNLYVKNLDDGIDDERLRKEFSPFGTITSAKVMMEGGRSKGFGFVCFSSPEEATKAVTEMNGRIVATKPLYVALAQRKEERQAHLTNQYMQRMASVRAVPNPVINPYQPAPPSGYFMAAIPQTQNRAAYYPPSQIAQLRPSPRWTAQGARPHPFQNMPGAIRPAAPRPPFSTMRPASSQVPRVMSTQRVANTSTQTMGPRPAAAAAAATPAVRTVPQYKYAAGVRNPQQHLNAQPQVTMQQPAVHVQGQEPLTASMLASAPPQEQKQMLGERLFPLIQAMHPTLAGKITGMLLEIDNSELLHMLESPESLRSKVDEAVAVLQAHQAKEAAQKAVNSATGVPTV
# eIF4H FP inh: inhibitors of RNA binding by human eIF4H; inhibition, % at 35 µM; 0.94% of 290,000 active; eIF4H fluorescence polarization binding assay;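 active = 50% or more with normal probe brightness, or confirmed in later tests; inconclusive = above 50% with abnormal brightness, or retests that disagree; inactive = below 50% or failed in later tests; about a fifth of its hits are not listed in these tables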;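 note: calls also rest on retests at 20 µM and on dose response follow-up; 0% = protein and probe with vehicle and 100% = probe without protein; strong numbers were not always called active; many hits fall short of the cut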
# Rce1 inhib: inhibitors of yeast Ras-converting enzyme; Q03530; yeast membranes, quenched prenylated peptide cleavage fluorescence; calls only; 0.27% of 290,000 active; AID 2563;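 active = fall in fluorescence gain of 50% or more versus controls, with final raw signal at or below 3038400; inconclusive = same 50% fall but final raw signal above 3038400; inactive = fall in fluorescence gain under 50%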;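 note: plate controls were neutral control wells for no effect and wells lacking membranes for full effect; tested at 10 µM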
# Target sequence (Q03530 whole entry, looked up): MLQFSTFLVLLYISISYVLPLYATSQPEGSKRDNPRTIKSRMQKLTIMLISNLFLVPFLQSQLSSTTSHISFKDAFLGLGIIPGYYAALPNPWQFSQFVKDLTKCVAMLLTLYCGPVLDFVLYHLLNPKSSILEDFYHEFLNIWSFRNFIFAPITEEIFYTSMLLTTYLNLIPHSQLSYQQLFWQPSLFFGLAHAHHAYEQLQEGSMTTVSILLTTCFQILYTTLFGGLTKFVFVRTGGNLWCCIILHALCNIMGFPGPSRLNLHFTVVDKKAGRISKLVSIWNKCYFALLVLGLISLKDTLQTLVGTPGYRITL
# Yeast UUG start: yeast start codon fidelity modulation; S. cerevisiae UUG-firefly luciferase reporter, luminescence/redox ratio; activity score, % at 18.7 µM; 0.13% of 350,000 active;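 active = replicate mean at a twofold rise or more, about +100% in these data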;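 note: firefly luciferase made from a UUG start codon reports start codon fidelity; reporter light over untreated wells divided by growth signal over untreated wells; some hits fall short of that in this replicate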
# MT1-MMP act inh RFP: also measured in MT1-MMP act inh; calls as there; RFP signal change, %; measured here: RFP expression control read;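 0 = vehicle wells; hits needed this value within 50% of zero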
# * hit, by the source's call; i = inactive; ? = inconclusive; nt = no result given; [ ] = dose if it differs, or a comment.
SMILES,CSC inhib,HIV Env fusion,MT1-MMP act inh,MT1-MMP act inh RFP,PABP FP inh,eIF4H FP inh,Rce1 inhib,Yeast UUG start
C/C=N/NC(=O)CCCC(=O)N/N=C/C,12,8,0,5,-2,7,nt,nt
O=C(NCCc1ccc(Cl)cc1)C1CCN(c2cnccn2)CC1,-19,-5,-3,0,7,2,i,-19
Cn1cc(CC(=O)NCc2ccc(F)cc2)c2ccccc21,-1,-4,0,2,-3,3,i,-24
CC(=O)c1sc(NC(C)c2ccccc2)nc1C (configuration not stated),-14,1,-1,-1,2,2,i,-6
N#Cc1cc([N+](=O)[O-])ccc1NC(=O)COC(=O)CC1CCCC1,-5,nt,nt,nt,8,0,i,nt
COCC1CCN(C(=O)CCc2nnc(CCCCc3ccccc3)o2)CC1,-8,-3,4,5,-2,-10,i,nt
CCCNC(=O)NC(=O)CSc1ccc(C)cc1C,-9,-3,1,6,-4,-2,i,nt
C=CCNc1nc2cc(-c3ccccc3C)sc2c(=O)n1C,nt,27,-9,-11,nt,nt,nt,-15
CCN(CC)C(=O)Cn1c(=O)n(CCC(=O)Nc2ccc(F)cc2)c(=O)c2sccc21,-5,2,0,4,13,-4,i,-17
COc1ccc(CNC(=O)CCCCCNC(=O)N2CCn3c2nc2ccccc23)cc1,-11,-6,-3,5,-3,-3,i,-15
Nc1ccccc1Nc1c(F)c(F)nc(F)c1Cl,5,-42,2,5,-10,-3,i,-8
CC(=O)c1c(O)cc(C)n(Cc2ccccc2)c1=O,nt,-31,-3,5,nt,nt,i,-10
Cc1ccccc1Cn1cc(NC(=O)c2cc(C3CC3)on2)cn1,nt,8,-4,-7,9,2,i,nt
COc1ccc(CCNC(=O)c2nnn(-c3ccccc3OC)c2N)cc1OC,-7,-12,1,3,-3,-8,i,-18
Cc1cc(C)c2nc(C(F)(F)F)nc(N3CCN(C(=O)c4ccco4)CC3)c2c1,12,73*,-10,-17,1,-8,i,-4
O=C(COc1cc2oc(=O)c3c(c2cc1Cl)CCC3)NCC(O)c1ccccc1 (configuration not stated),23,-3,4,5,-2,-5,i,1
O=C(Nc1cccc(O)c1)c1ccc(Br)c(S(=O)(=O)N2CCCCC2)c1,-4,nt,4,-6,-5,-10,i,nt
O=C(N/N=C/c1ccccc1O)C1SCCCS1,0,-7,-1,3,19,5,i,nt
Cc1ccccc1C(=O)NCCCNC(=O)c1ccco1,-17,8,-2,1,4,-11,i,-10
O=C(COc1cccc2cccnc12)NCc1cccs1,13,-2,-1,3,-6,45,i,5
CC(C)Oc1ccc(/C(O)=C2/C(=O)C(=O)N(CCN3CCNCC3)C2c2ccc(C(C)C)cc2)cc1 (configuration not stated),-8,12,-1,1,1,1,i,-9
COc1ccc(-c2nnc(SCC(=O)Nc3cccnc3Cl)n2C)cc1,-2,-5,-4,2,nt,nt,i,-10
O=C(C[n+]1cccc(CNC(=O)c2ccc(OC(F)F)cc2)c1)Nc1ccc(SC(F)F)cc1,17,5,1,-2,-15,-4,i,10
CC(=O)NCCNC(=O)c1ccc(NC2=NC3CS(=O)(=O)CC3S2)cc1 (configuration not stated),-4,-2,1,1,-4,2,i,nt

# Limited to Yeast UUG start and eIF4H FP inh (two entries from above):
Molecule | Yeast UUG start | eIF4H FP inh
COc1ccc(CNC(=O)CCCCCNC(=O)N2CCn3c2nc2ccccc23)cc1 | -15 | -3
Nc1ccccc1Nc1c(F)c(F)nc(F)c1Cl | -8 | -3

# The list continues:
SMILES,CSC inhib,HIV Env fusion,MT1-MMP act inh,MT1-MMP act inh RFP,PABP FP inh,eIF4H FP inh,Rce1 inhib,Yeast UUG start
CC1=C(C(=O)Nc2ccc([N+](=O)[O-])cc2)C(c2cccc(C(F)(F)F)c2)NC(=S)N1c1ccccc1 (configuration not stated),33,-169,-2,-11,-2,4,i,nt
CC(C)c1ccccc1NC(=O)c1ccc2ncsc2c1,-4,2,0,-1,8,-3,i,-22
c1cc(-c2noc(CC3CCCCC3)n2)ccn1,-3,nt,-1,-3,-2,-6,nt,-10
COCCCNC(=O)c1cccc(OC)c1OC,-16,-247,-2,1,5,1,i,-3
COc1ccc(-c2cn3c(C)c(C(=O)NCCN4CCOCC4)sc3n2)cc1,-8,-52,4,9,7,-1,i,-30
Cn1nc(-c2ccccc2)c(C(=O)Nc2ccc(C(F)(F)F)cc2)c1Cl,-2,nt,-1,-3,5,10,i,-27
O=C(OCC(=O)N1CCN(c2ccccc2)CC1)c1ccccc1[N+](=O)[O-],-12,-54,0,-1,nt,nt,i,nt
CCCCCn1c(=O)[nH]c2cc(C(=O)N3CCN(C(=O)OCC)CC3)ccc2c1=O,-3,2,0,-4,-1,-21,nt,-1
Cc1cc(C)n(-c2c(F)c(F)c(COC(=O)c3ccccc3)c(F)c2F)n1,4,nt,1,7,11,-6,i,-25
CCC(=O)Nc1ccc2c(c1)OC[C@@H](C)N(Cc1ccccc1F)C[C@@H](C)[C@@H](OC)CN(C)C2=O,nt,2[16.7 µM],3,6,nt,nt,nt,-3
O=C(CCN1CCCO1)N1CCCC(N2CCN(c3ccccc3F)CC2)C1 (configuration not stated),8,-9,3,5,-4,-8,i,-12
Cc1ccc(-n2c(O)c(C=NC3CCS(=O)(=O)C3)c3ccccc3c2=O)cc1 (configuration not stated),nt,-21,-2,3,3,-7,i,4
O=C(Nc1cccc(-c2cscn2)c1)C1CCN(Cc2ccsc2)CC1,0,1,5,1,2,2,i,-7
CN1C(=O)c2ccccc2N(C)C1c1ccc2c(c1)OCO2 (configuration not stated),0,nt,-1,4,-1,5,nt,-7
COc1ccc(OC)c(NC(=O)Nc2nc(CN(C)C)cs2)c1,nt,9,0,1,nt,nt,nt,-15
Cc1cccc(OCC(=O)N/N=C/c2ccc(N(C)C)cc2)c1,-5,-2,-2,2,9,4,i,5
CC(Oc1ccccc1)C(=O)NNS(=O)(=O)c1ccc([N+](=O)[O-])cc1 (configuration not stated),-11,nt,0,4,2,4,i,6
COc1ccc(-c2c(C)oc3ccc(C)cc23)cc1,21,0,-1,0,-12,-4,i,18
C[C@@]12CCC3[C@@](CCC4[C@@]3(C)CCC[C@@]4(C)C(=O)N3CCCCC3)(CC1=O)C2 (some centres not stated),-7,-3,0,-10,nt,nt,nt,-13
O=[N+]([O-])/C=C/c1ccc2c(ccn2Cc2ccccc2)c1,18,-351,2,-9,-7,-6,i,-36
O=C(Cc1ccccc1F)Nc1ccc(S(=O)(=O)Nc2ncccn2)cc1,-4,5,1,5,-9,-9,i,-16
CC(C)CC(OC(=O)c1ccco1)C(=O)NCC1CCCO1 (configuration not stated),0,-62,3,5,7,3,i,-14
N#CCN(N=Nc1ccccc1)c1ccccc1,5,-2,1,-5,16,0,i,-21
CC(=O)N1[C@H](Cc2ccccc2)C=C[C@]1(C)C(=O)NCc1ccccn1,-11,?,1,8,4,8,i,-28
Cc1ccc(/C=N/NC(=O)c2ccncc2)o1,4,nt,6,7,17,-7,i,-8
Cc1cc(Nc2ccc(Cl)cc2)n(-c2ccccc2)n1,-5,nt,-6,-5,5,4,i,-8
CCOc1ccccc1CN(CCc1ccc2c(c1)OCO2)Cc1ccccn1,nt,nt,5,0,9,-3,i,-14
COc1ccc(/C=C2\SC(=S)N(CCCCCC(=O)Nc3cc(C)on3)C2=O)cc1OC,-6,nt,-6,-1,1,9,i,-14
CCCS(=O)(=O)N1CCC(C(=O)N2CCC(Cc3ccccc3)CC2)CC1,5,nt,6,-2,3,6,i,32
COc1ccc(NC(=O)[C@H](C)NS(=O)(=O)c2ccc(NC(C)=O)cc2)cc1Cl,nt,6,2,3,nt,nt,nt,-5
CCc1ccc(NC(=O)Nc2ccon2)cc1,2,-46,7,1,-5,-8,i,1
CCOc1ccccc1NC(=S)N1CCCCCC1,-23,-5,-3,2,-9,4,i,-20
O=C(CCc1ccccc1)NNC(=S)NCCc1ccccc1,-6,-10,-1,0,3,3,i,-9
COCCNC(=O)C(c1ccncc1)N(Cc1ccccc1)C(=O)Cn1nnc2ccccc21 (configuration not stated),-20,7,-1,4,11,1,i,nt
Cc1cccc(OCC(=O)NNC(=O)CCN2CCN(c3ccccc3)CC2)c1C,-10,-8,1,4,nt,nt,nt,-16
Cc1cccc(/C(N)=N/OC(=O)c2ccncc2)c1,7,-49,-1,4,-2,-6,i,-26
CC(C)C(CCNCc1ccccn1)c1ccc(Cl)cc1 (configuration not stated),-2,-1,2,2,-3,11,i,-17
CC(=O)Nc1ccc(NC(=O)c2cc([N+](=O)[O-])cc([N+](=O)[O-])c2)cc1,-11,13,5,0,5,-4,i,4
COc1ccc(CC(=O)O/N=C(\N)c2ccncc2)cc1,-9,21,1,-3,7,-3,i,nt
Nc1ncnc2c1ncn2[C@@H]1O[C@H](CNCc2ccc(OCc3ccccc3)cc2)[C@@H](O)[C@H]1O,nt,-48,0,-3,nt,nt,nt,-12
Cc1ccc(/C=C2\Oc3c(ccc(O)c3CN3CCN(CCO)CC3)C2=O)cc1,nt,-1,-10,-1,-9,?,i,nt
COc1ccc(NC(=O)Cn2cc(C#N)c3ccccc32)cc1,nt,8,2,1,?,-5,i,nt
COc1ccc(C(=O)Nc2ccc(S(=O)(=O)Nc3nccc(C)n3)cc2)cc1OC,-11,-12,-1,2,4,8,i,-16
N#CC1=C(N)NC(SCc2ccc(F)cc2)=C(C#N)C12CCCCC2,62,nt,1,-12,-2,-5,i,-15
Cc1nc2c(OCc3ccc(C(F)(F)F)cc3)cccn2c1N(C)CC1CC1,nt,10,7,-20,nt,nt,nt,-15
CC(C)NCC(=O)C12CC3CC(CC(C3)C1)C2,-6,7,2,4,0,-4,i,-14
Cc1oc(=O)cc(OCc2ccccc2)c1C,nt,-51,3,-1,nt,nt,nt,-21
Cc1ccc(NC(=O)Nc2cccc([N+](=O)[O-])c2)cc1F,21,18,-12,-35,32,8,i,nt
COc1ccc(OC)c(S(=O)(=O)N2CCCC2C(=O)NC(C)c2ccccc2)c1 (configuration not stated),-14,9,-6,-1,2,-8,i,6
Cc1ccc(C(=O)OCC(=O)N2CCCCCC2)cc1S(=O)(=O)N1CCOCC1,3,1,1,0,nt,nt,nt,-11
Cn1ncc(Br)c1C(=O)NC12CC3CC(CC(C3)C1)C2,-18,-12,-2,1,1,4,i,nt
Cc1ccc(C(=O)Nn2cnc3scc(-c4cccs4)c3c2=O)c(O)c1,4,nt,-3,-1,11,-15,i,-7
COc1ccc(OC)c(NC(=O)c2cc(-c3ccc(C)cc3O)n[nH]2)c1,27,-41,8,3,-16,6,nt,-15
O=C(Oc1ccc2c(c1)OCO2)c1cc2c(s1)CCC2,-2,75*,8,4,55*,98*,i,-14
COc1cc(Cl)ccc1OC1(C)CCN(Cc2cccn2-c2nccs2)C1 (configuration not stated),nt,-9,-5,-1,nt,nt,nt,-6
Cc1cc([N+](=O)[O-])ccc1NC(=O)Cc1ccc(F)cc1,-5,-10,5,3,-2,3,i,nt
CCCNc1nc2c(c(=O)n(C)c(=O)n2C)n1CCCc1ccccc1,-6,-3,6,0,-6,-3,nt,0
CC1CC(C)CN(C(=O)COC(=O)C2CCN(S(=O)(=O)c3ccc4c(c3)OCCO4)CC2)C1 (configuration not stated),-5,-1,0,3,nt,nt,i,-2
COc1ccccc1NC(=O)C1=C(C)NC2=C(C(=O)CCC2)C1c1ccc(C)o1 (configuration not stated),1,5,2,5,1,4,i,-4

# Screening results deposited in PubChem by several laboratories.

# The list is partial; rates above refer to the full screens.
